Screening results from PubChem BioAssay.
VDR inhibitor: vitamin D3 receptor (human) inhibition; P11473; VDR-SRC2-3 peptide fluorescence polarization, 2 h; Potency, µM, for the others: max response, negative = inhibition, actives largely listed as inhibitors; actives 0.93% (n = 400,000); active = well fitted inhibition curve with a large enough effect; inconclusive = small, poorly fitted or top-dose-only effect, or another doubt; inactive = no such curve, though single readings can be large or run the other way; also: series mostly up to about 120 µM
Target sequence (P11473 whole entry, looked up): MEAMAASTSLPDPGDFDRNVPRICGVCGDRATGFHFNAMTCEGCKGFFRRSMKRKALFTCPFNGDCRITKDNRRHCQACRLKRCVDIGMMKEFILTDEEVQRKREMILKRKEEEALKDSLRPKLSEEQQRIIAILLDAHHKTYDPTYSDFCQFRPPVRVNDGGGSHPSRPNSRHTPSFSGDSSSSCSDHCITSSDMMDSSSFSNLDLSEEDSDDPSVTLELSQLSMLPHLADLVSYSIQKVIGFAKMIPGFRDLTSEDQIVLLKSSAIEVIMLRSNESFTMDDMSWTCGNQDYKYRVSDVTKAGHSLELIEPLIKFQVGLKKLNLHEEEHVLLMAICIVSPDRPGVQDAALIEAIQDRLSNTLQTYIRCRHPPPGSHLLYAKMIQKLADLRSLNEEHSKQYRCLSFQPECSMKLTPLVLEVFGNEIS
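Signal is fluorescence polarization, reporting how far test compounds block the interaction of VDR with the SRC2-3 coregulator peptide after a 2 h room-temperature incubation.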
Starred values were filed as active, the others as inactive; u = inconclusive; & = joins results of further samples. % is scaled to controls: 0 for no effect and ±100 for the full control effect; potency is read from the fitted curve at half-maximal effect.

SMILES	VDR inhibitor
COc1cccc(C(c2sc3nc(-c4ccco4)nn3c2O)N2CCN(C)CC2)c1 (centres undefined)	4%
Nc1ccc(CSc2ccc(Cl)cc2)cc1	9%
CCOC(=O)C1CCCN(C(=O)c2ccc3nc(-c4ccccc4)c(-c4ccccc4)nc3c2)C1 (centres undefined)	-20%
CCn1c(SCC(=O)N2c3ccccc3CC2C)nnc1-c1ccco1 (centres undefined)	3%
Cc1cc(=O)oc2cc(NC(=O)C(C)Oc3cccc(Cl)c3)ccc12 (centres undefined)	-22%
Cc1nn(CCCC(=O)Nc2cccc(F)c2)c(=O)c2c1sc1ccccc12	10%
Cc1cnc(C(=O)OCC(=O)NCc2ccc3c(c2)OCO3)cn1	5%
O=C(COc1ccc2ccc(=O)oc2c1)Nc1cccc(S(=O)(=O)N2CCCCC2)c1	0%
Cc1cc(C(=O)Nc2cccc3ccccc23)n(-c2ccccc2)n1	5%
O=C(O)CN=C(NS(=O)(=O)c1ccccc1)c1ccccc1	1%
O=P1(O)Oc2c(-c3ccccc3)cc3ccccc3c2-c2c(c(-c3ccccc3)cc3ccccc23)O1	u
C[C@@H](NC(=O)c1nc[nH]c1C(=O)N1CCN(C(=O)OC(C)(C)C)CC1)c1ccccc1	-4%
CCn1cnc2cc(NCc3ccc(Br)cc3)ccc21	2%
O=C(O)C1=CC[C@@H](c2ccc(Cl)cc2)N(S(=O)(=O)c2ccc(Cl)cc2)[C@H]1c1cccc(Cl)c1	-6%
O=C(COC(=O)c1cnc(Cl)c(Cl)c1)NCc1ccc2c(c1)OCO2	-2%
Cc1cc(C)c2nc(N3CCC(C(=O)NCCN4CCOCC4)CC3)sc2c1	-14%
CC1CC(O)(Cc2ccccc2)C(C)CN1C (centres undefined)	6%
Cc1cc(N2C(=O)c3ccc(C(=O)Nc4ccc(CC(=O)O)cc4)cc3C2=O)no1	-16%
COc1nc(-c2ccccc2)ccc1-c1noc(-c2cccs2)n1	7%
COC(=O)[C@@H](NC(=O)NCc1ccccc1Cl)C(C)C	10%
CCNC(=S)N/N=C/c1ccc(OCCOc2ccccc2C)cc1	-18%
Cc1nnc(SC(C)C(=O)NC2CCCCC2C)s1 (centres undefined)	-5%
COc1cccc(-c2cc(C(=O)NCc3ccco3)c3ccccc3n2)c1	13%
COc1ccc(CCn2c(NCCCN3CCOCC3)nc3c2c(=O)[nH]c(=O)n3C)cc1	4%

Copied from the list.
Cc1nnc(SC(C)C(=O)NC2CCCCC2C)s1 (centres undefined) in VDR inhibitor has -5%
Cc1cc(N2C(=O)c3ccc(C(=O)Nc4ccc(CC(=O)O)cc4)cc3C2=O)no1 in VDR inhibitor has -16%
O=C(O)C1=CC[C@@H](c2ccc(Cl)cc2)N(S(=O)(=O)c2ccc(Cl)cc2)[C@H]1c1cccc(Cl)c1 in VDR inhibitor has -6%
CC1CC(O)(Cc2ccccc2)C(C)CN1C (centres undefined) in VDR inhibitor has 6%
COC(=O)[C@@H](NC(=O)NCc1ccccc1Cl)C(C)C in VDR inhibitor has 10%
COc1ccc(CCn2c(NCCCN3CCOCC3)nc3c2c(=O)[nH]c(=O)n3C)cc1 in VDR inhibitor has 4%

(next part)
SMILES	VDR inhibitor
Cc1cccn2c(=O)c(C(=O)NC3CCCCC3)c(O)nc12	19%
CCNC(=O)/C(C#N)=C/c1c(N2CCN(c3cccc(Cl)c3)CC2)nc2c(C)cccn2c1=O	1%
O=c1[nH]c2ccc(Cl)cc2c(-c2ccccc2)c1SC(=S)N1CCOCC1	89µM*
Cn1c(=O)c2cc(S(=O)(=O)NCCC(=O)NCCc3ccc(Cl)cc3)ccc2n(C)c1=O	16%
Cc1oc2ncn(C)c(=O)c2c1C(=O)N1CCN(c2ccccc2)CC1	-17%
COCCN(C(=O)c1ccccc1OC1CCN(S(C)(=O)=O)CC1)C(C)C	-2%
COc1ccc(OC)c(C(C)NC(=O)c2ccco2)c1 (centres undefined)	13%
NC(=S)N/N=C/c1ccccc1OC(=O)/C=C/c1ccccc1	u
COCCN(C(=O)COC(=O)c1ccc(Cl)s1)c1c(N)n(Cc2ccccc2)c(=O)[nH]c1=O	-4%
O=C(Nc1ccccc1SCC1CSc2nc3ccccc3c(=O)n21)c1ccccc1 (centres undefined)	17%
Cc1cc(NC(=O)C2CC(=O)N(c3ccccc3)C2)no1 (centres undefined)	-17%
COc1ccccc1N=C1SC(C(=O)Nc2cccc(Cl)c2Cl)C(N)=C1C(N)=O (centres undefined)	-10%
CNC(=O)c1ccccc1Sc1cccc2cccc(C(=O)O)c12	13%
CC(C)NS(=O)(=O)c1ccc(CCC(=O)NCc2ccco2)cc1	-2%
COc1cccc(Cn2c(=O)c(-c3cccs3)nc3cnc(Nc4cccc(OC)c4)nc32)c1	7%
COc1ccc(C=CC(C)=NNC(=O)c2ccncc2)cc1	15%
COc1ccc(NC(=O)CN(C)C(=O)CCCc2c[nH]c3ccccc23)cc1	-10%
O=C(c1cc(Cl)cc(Cl)c1)N1CCOCC1	-1%
COC(=O)C(C)NC(=O)C12CC3CC(CC(C3)C1)C2 (centres undefined)	-3%
Cc1ccccc1NC(=O)c1ccc(CN2CCC(Cc3ccccc3)CC2)cc1	2%
CCOc1ccc(CNS(=O)(=O)c2ccc3[nH]c(=O)ccc3c2)cc1	4%
CC(=O)Nc1ccc(NC(=O)CCCc2nc(-c3ccc(C(C)(C)C)cc3)no2)cc1	-2%
COC(=O)c1cc(NC(=O)c2ccc(OC)cc2)c(=O)oc1C	2%
COc1cccc(C(=O)Nc2ccc(NC(=O)c3ccco3)c(Cl)c2)c1	-19%

The list goes on (four carried over from the part before).
SMILES	VDR inhibitor
CCOc1ccc(CNS(=O)(=O)c2ccc3[nH]c(=O)ccc3c2)cc1	4%
CC(=O)Nc1ccc(NC(=O)CCCc2nc(-c3ccc(C(C)(C)C)cc3)no2)cc1	-2%
COC(=O)c1cc(NC(=O)c2ccc(OC)cc2)c(=O)oc1C	2%
COc1cccc(C(=O)Nc2ccc(NC(=O)c3ccco3)c(Cl)c2)c1	-19%
O=S(=O)(Nc1ccccc1)c1ccc(S(=O)(=O)N2CCCC2)cc1	-14%
CCOc1ccc(N2C(=O)S/C(=C\c3ccc(O)c(OCC)c3)C2=O)cc1	3%
COCCCNC(=O)COc1ccc(S(=O)(=O)Nc2ccccc2)cc1	-17%
Cc1ccc(NC(=O)CSc2nccn2Cc2ccco2)c(C)c1	14%
O=C(CSc1nnc(-c2cccnc2)n1C1CCCCC1)NC1CCCCC1	5%
COc1ccc(CCNC(=O)CCCn2c(=O)c3ccccc3n(CC(=O)Nc3cccc(C)c3)c2=O)cc1OC	-1%
O=C(NCC1CCCO1)C1CCN(C(=O)c2ccc(Br)cc2)CC1 (centres undefined)	2%
CCc1ccc(NC(=O)C2CCCN(S(=O)(=O)c3ccc4c(c3)CCCN4C(C)=O)C2)cc1 (centres undefined)	7%&7%
COC(=O)C1CCN(S(=O)(=O)c2cn(C)c(=O)n(C)c2=O)CC1	-1%
CCOC(=O)c1cc(C)n(CC2CCC(C(=O)Nc3ccc(OC)c(OC)c3)CC2)c1C (centres undefined)	7%
O=C(C1=C[C@@H](c2coc3ccccc3c2=O)C[C@@H](OCCCCO)O1)N1CCN(Cc2ccc3c(c2)OCO3)CC1	-9%
COc1cc(C(=O)N2CCN(CCCc3ccccc3)CC2)cc(OC)c1OC	-14%
CC1=NN(C(=O)c2ccccc2F)C(O)(c2ccc(Cl)cc2)C1 (centres undefined)	15%
CCCCC(=O)NC(Nc1cc(C)ccn1)(C(=O)OCC)C(F)(F)F (centres undefined)	6%
CCS(=O)(=O)c1nc(S(=O)(=O)c2ccc(C)cc2)c(NCc2ccc(Cl)cc2)s1	5%
CCOC(=O)C1CCN(CC(=O)N2C(C)CCCC2C)CC1 (centres undefined)	u
CCOc1ncccc1C(=O)N1CCN(c2cccc(C)c2C)CC1	-3%
COc1cc(/C=N/NC(=O)c2ccc3nc[nH]c3c2)cc(OC)c1OC	10%
O=C1/C(=C\c2ccc(O)c(O)c2)Oc2cc(O)ccc21	u
CCOC(=O)CSc1nc(C)cc(C)c1C(N)=O	-9%
O=C(O)C12C[C@H]3C[C@@H](C1)CC(n1ncc(N4CCN(c5ccccc5)CC4)c(Cl)c1=O)(C3)C2	6%
COC(=O)CCN(C(=O)c1ccc(Cl)c([N+](=O)[O-])c1)c1ccccn1	-18%
CCOc1ccccc1CNC(=O)c1ccccc1NC(=O)C1=CSCCO1	-21%
COc1ccc(CC(=O)N(C)CC(=O)Nc2ccccc2Cl)cc1S(=O)(=O)N1CCOCC1	-20%

Reprinted from the part before: 3 entries, followed by the next part.
SMILES	VDR inhibitor
COC(=O)CCN(C(=O)c1ccc(Cl)c([N+](=O)[O-])c1)c1ccccn1	-18%
CCOc1ccccc1CNC(=O)c1ccccc1NC(=O)C1=CSCCO1	-21%
COc1ccc(CC(=O)N(C)CC(=O)Nc2ccccc2Cl)cc1S(=O)(=O)N1CCOCC1	-20%
CC(Sc1nnnn1-c1ccc(O)cc1)C(=O)NC1CCCCC1C (centres undefined)	-7%
CC(=O)NC12CC3CC(C1)CC(C(=O)N1CCN(C(=O)c4ccco4)CC1)(C3)C2	-3%
CC1Cc2ccccc2N1Cc1cc(=O)c(OCC(=O)Nc2ccccc2)co1 (centres undefined)	3%
NC12NC(=O)C3(O)C4C5CC(C6C5C3C61)C42 (centres undefined)	-3%
COc1ccc(C(=O)CC(=O)C(=O)Nc2ccccc2)cc1	18%
COc1cc(/C=N/N(C)S(=O)(=O)c2ccc(C)cc2)cc([N+](=O)[O-])c1O	-20%
O=C(NC(=S)Nc1ccccc1N1CCOCC1)c1ccc(-c2cc(Cl)ccc2Cl)o1	-1%
Cc1ccccc1OCC(=O)Nc1ccccc1C(=O)OCc1cc(=O)n2ccsc2n1	19%
CSc1ccc(/C=C/c2nc3ccccc3n2S(=O)(=O)c2ccc(F)c(C)c2)cc1	-4%
Cc1ccc(N(C(=O)Cn2nnc3ccccc32)C(C(=O)NC2CCCCC2)c2cn(C)nc2C)cc1 (centres undefined)	6%
Cc1ccc(C(C)C)c(OCC(=O)NN2C(=O)c3ccccc3C2=O)c1	-7%
Cc1nnc(SCC(=O)Nc2ccc(-c3nc4ccccc4s3)cc2)s1	-22%
CSc1c(C#N)c(N)c(C#N)c2c1COC(C)(C)C2	7%
CCCN1C2CCCC1CC(NC(=O)c1cc(OC)c(OC)c(OC)c1)C2 (centres undefined)	-22%
COc1ccc(CCNC(=O)CS(=O)(=O)c2cn(CC(=O)N(C(C)C)C(C)C)c3ccccc23)cc1OC	-9%
Cn1cc(Cl)c(C(=O)N/N=C/c2ccc3c4c(cccc24)CC3)n1	-2%
CCOC(=O)Oc1ccc2c(=O)c(Oc3cccc(C)c3)coc2c1	-17%
Cc1ccc(C)c(Cn2ncc3ccccc32)c1	14%
Cc1ccc2[nH]c(C)c(CCNC(=O)C3CCCCC3C(=O)OCC(F)(F)F)c2c1 (centres undefined)	-24%
Cc1ccc(-c2nc(SCC(=O)NCc3ccco3)c3c(=O)n(C)c(=O)n(C)c3n2)cc1	4%
O=C(C1CC1)N1CCN(c2ccc(O)cc2)CC1	10%
COCCn1c(C)cc(C2=NNC(=Nc3ccc(OC)cc3)SC2)c1C	-15%
COc1cc(OC)c(NC(=O)CSc2nc3ccncc3[nH]2)cc1Cl	6%
CCC(C)NC(=O)CNS(=O)(=O)c1ccc(C)cc1 (centres undefined)	7%
CC(=O)Nc1cccc(C(=O)/C=C/c2ccc[nH]2)c1	2%
COCCCNCCCCOc1ccc(OCc2ccccc2)cc1	-14%
Cc1ccc(S(=O)(=O)N(Cc2cccc(Cl)c2)C(=O)N2CCN(C)CC2)cc1	-11%
CCOc1ccc(C(=O)Nc2cc(Cl)ccc2-n2cncn2)cc1OC	1%
S=C(NCc1ccco1)Nc1cccc(Cl)c1	-10%
COC(=O)COc1ccc2cc(-c3ccc(OC)cc3)c(=O)oc2c1	-13%
Nc1nonc1-n1nnc(C(=O)N/N=C/c2cccc(Cl)c2)c1CN1CCCCCC1	-5%
CSCCC(NS(=O)(=O)c1ccc2c(c1)OCCO2)C(=O)N(C)Cc1ccc(C)cc1 (centres undefined)	-20%
COc1cccc2c1C1(O)C2CCCCCCCCCC12OCCCO2 (centres undefined)	4%
Cc1cc(=O)[nH]c(SCC(=O)Nc2ccc(Br)cn2)n1	5%
Cc1cccn2c(=O)c3cc(C(=O)NC(C)C)c(=N)n(Cc4ccncc4)c3nc12	-4%
CCOC(=O)CN1CC23C=CC(O2)C(C(=O)Nc2ccc(C(C)=O)cc2)C3C1=O (centres undefined)	-13%
COc1cc(C(=O)N2CCc3ccccc32)ccc1OCc1c(C)noc1C	-3%
CC(C)OCC(O)CN1CCN(C(c2ccccc2)c2ccccc2)CC1 (centres undefined)	5%
COc1ccc(NC(=O)C2CCN(C(=O)NC3CCCCC3)CC2)c(OC)c1	-20%
CC1CC(C)CN(CCCNC(=O)c2ccc(CS(=O)(=O)Cc3cccc(Cl)c3)o2)C1 (centres undefined)	6%
Cc1cccc(/C(N)=N/OC(=O)Cc2ccccc2)c1	11%
O=C(O)c1cc(=O)c2ccccc2[nH]1	5%&-20%
O=C(NCCc1ccccc1)c1nnc(Cc2cccc(F)c2)o1	13%
Cc1cccn2c(=O)c3cc(C(=O)NC4CCCC4)c(=N)n(Cc4ccc(F)cc4)c3nc12	-11%
Cc1ccccc1NS(=O)(=O)c1cc(C(=O)NCc2ccco2)ccc1C	29%
CC(=O)N1CCN(S(=O)(=O)c2ccc(S(=O)(=O)NC3CCCCC3)cc2)CC1	-3%
O=C(COC(=O)c1ccccc1)Nc1cc(Cl)ccc1Oc1ccccc1	-3%
Cc1ccc(CCNC(=O)CN(c2cc(C)cc(C)c2)S(=O)(=O)c2c(C)noc2C)cc1	-18%&2%

The list is partial (hit frequency here may not be typical).
